RecA intein inh – Mtb RecA intein splicing inhibitors, primary screen, biochemical, fluorescence, HTS | inhibition, %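 (about 9 µM by stock and volumes)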 | cell-free RecA intein splicing | 290,000 compounds, 0.75% hits | AID 2221, 2009; in the data active means inhibition above about 30%; inconclusive means no clear call, values can overlap the other calls;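 further: 0% = vehicle wells and 100% = reference inhibitor control wells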
Target sequence (P9WHJ3 whole entry, looked up): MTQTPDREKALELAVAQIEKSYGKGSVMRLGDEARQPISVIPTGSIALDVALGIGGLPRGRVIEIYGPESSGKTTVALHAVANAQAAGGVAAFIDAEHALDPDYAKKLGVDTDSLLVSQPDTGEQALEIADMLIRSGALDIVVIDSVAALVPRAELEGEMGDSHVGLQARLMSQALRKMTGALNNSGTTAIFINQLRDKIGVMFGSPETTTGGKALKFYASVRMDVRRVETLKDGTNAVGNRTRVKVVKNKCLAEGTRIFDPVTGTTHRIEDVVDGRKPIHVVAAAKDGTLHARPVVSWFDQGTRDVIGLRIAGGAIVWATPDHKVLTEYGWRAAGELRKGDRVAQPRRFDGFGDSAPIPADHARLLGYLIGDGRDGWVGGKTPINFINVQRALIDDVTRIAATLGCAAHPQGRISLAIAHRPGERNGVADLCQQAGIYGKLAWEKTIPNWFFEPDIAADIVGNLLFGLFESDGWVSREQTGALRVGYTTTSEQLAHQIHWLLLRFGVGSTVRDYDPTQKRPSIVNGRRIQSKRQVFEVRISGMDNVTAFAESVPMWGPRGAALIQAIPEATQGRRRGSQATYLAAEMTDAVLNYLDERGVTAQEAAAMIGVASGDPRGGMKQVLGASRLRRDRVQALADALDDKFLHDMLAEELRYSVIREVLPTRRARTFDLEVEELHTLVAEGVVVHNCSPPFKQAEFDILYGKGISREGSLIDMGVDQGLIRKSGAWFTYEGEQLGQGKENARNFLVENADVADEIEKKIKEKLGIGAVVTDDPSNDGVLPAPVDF
Arbovirus anti – antivirals against arbovirus infection, primary screen, cell-based, full library, 10K replicate subset; arbovirus infection cell-based antiviral screen; inhibition, % at 10 µM; 200,000 compounds, 0.37% hits;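 active means inhibition from about 30%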;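 further: bluetongue infection of BSR cells; cell survival read as ATP light after 72 h; 0% = infected wells without compound and 100% = uninfected wells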
Mtb H37Rv – M. tuberculosis H37Rv growth inhibitors, H37Rv strain (AID 1626); M. tuberculosis H37Rv growth inhibition; higher % means a stronger effect; 220,000 compounds, 0.95% hits; inhibition, % at 10 µM; hits with a dose series show IC50 in µM;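 active means confirmed in a dose series; inconclusive means inhibition above 80% but not taken into the dose series; inactive means below 80% or under 30% at every dose of the series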;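 further: bacteria incubated seven days before Alamar blue readout; 0% = bacteria only wells and 100% = bacteria with antibiotic wells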
YopH PTP inh – YopH tyrosine phosphatase inhibitors, primary screen, biochemical, fluorescence Ex485/Em525 | YopH tyrosine phosphatase [Yersinia enterocolitica] | AID 898, 2007 | inhibition, %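 (about 10 µM by stock and volumes)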 | 140,000 compounds, 0.16% hits;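 active means inhibition of 50% or more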;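 further: controls were vehicle for no effect and minimum signal wells for full effect; inactives centre near -20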
Mtb betalactam – beta-lactam sensitization of Mtb H37Rv, H37Rv; M. tuberculosis H37Rv growth with meropenem, percent inhibition; hits of this screen are not shown here; inhibition, % at 25 µM; 330,000 compounds, 0.27% hits;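 active means about 74% or more and at least 40 points above the plate without the antibiotic, then above 30% in a dose series; inconclusive means first-round hits that could not be retested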;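 further: growth measured after seven days incubation then overnight dye step; 0% = bacteria only wells and 100% = bacteria with antibiotic; twin plates without the antibiotic show which effects depend on it; some results filed as inactive read as strong as hits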
Arbovirus anti repeat – second read-out of Arbovirus anti, no call of its own (marks repeat the call); inhibition, %; measured here: 10K subset replicate screen; many hits read low in the repeat;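 first of two repeat runs on a subset; 0% = infected and 100% = uninfected wells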
The depositor's hits bear a star; ? = inconclusive; / = no result given. Only part of the results is shown (hit frequency here may not be typical).

SMILES	RecA intein inh	Arbovirus anti	Mtb H37Rv	YopH PTP inh	Mtb betalactam	others
Cc1ccc(NS(=O)(=O)c2ccc3c(c2)NC(=O)CCS3)cc1F	4.0	/	/	/	5
CCCn1c(OC)nc2c1c(=O)n(C)c(=O)n2C	/	-2	-5%	-12	-7	Arbovirus anti repeat=0
O=C(O)c1ccc(C(=O)O)c(C(=O)c2ccccc2)c1	-2.0	0	4%	-35	-3
CCCCC(=O)Nc1cccc(NC(=O)c2cccc([N+](=O)[O-])c2)c1	0.8	-17	15%	/	5
CCCCNC(=O)c1cnc2n(c1=O)CCS2	0.6	0	6%	5	2
COc1ccc(CCN(C)C(=O)c2cc(=O)c3ccccc3o2)cc1OC	-1.5	/	/	/	2
COc1ccc(C(=O)C2CCCN(C3CSCCSC3)C2)cc1OC (stereo unspecified)	2.1	4	-1%	/	3
Nc1cccc(Oc2ccc([N+](=O)[O-])cc2)c1	1.7	-1	8%	/	2
O=C(c1cn[nH]c1)c1cc(F)ccc1O	-1.1	1	9%	-55	-20
CC(C)(C)c1cc(NC(=O)c2ccco2)n(-c2ccccc2)n1	13	0	7%	/	1
Cc1cccc(C)c1OCc1cc(C(=O)NCc2cn(C)nc2C)no1	-2.6	/	/	/	-2
CCCc1[nH]c2ccc(C#N)cc2c1CCC	-0.8	/	/	/	38
Cc1ccc(CCNC(=O)c2nn(C)c3c2CS(=O)(=O)c2ccccc2-3)cc1	0.3	/	/	/	2
Cn1c(SCC(=O)Nc2cc([N+](=O)[O-])ccc2F)nnc1C(F)(F)F	-2.1	-4	-7%	-28	-1
Cc1cc(C(=O)CCC(=O)N2CCN(S(=O)(=O)c3ccccc3)CC2)c(C)s1	1.3	/	/	/	-18
COc1ccc(NC(=O)CSc2nncn2C)cc1	-0.8	/	/	/	-1
O=C(Cc1ccc(Cl)cc1)Nc1ccc(NC(=O)c2cccs2)cc1	0.7	-13	-1%	/	1
COc1ccc(OC(C)C(=O)N2CCC(C)CC2)cc1 (stereo unspecified)	1.4	-6	1%	-10	-3
COc1ccc(OC)c(-n2c(Cn3c(-c4ccccn4)nc4ccccc43)n[nH]c2=S)c1	-1.2	1	5%	/	-3
CN(C)S(=O)(=O)N1CCC(Oc2ccc(C(=O)NCC(C)(C)CO)cc2)CC1	-0.9	0	-3%	/	2
Cc1nc2ccccc2c(=O)n1/N=C/c1ccc(O)cc1O	-2.1	-5	5%	/	4
Cc1ccc(CNc2c(C=O)c(=O)[nH]c3ccccc23)cc1	0.6	/	/	/	-6
COc1ccc(C2NC(=O)NC(C)=C2C(=O)Nc2cc(C)ccc2C)cc1OC (stereo unspecified)	/	-3	-13%	-25	1
CC(C)(C)NC(=O)C1CCN(S(=O)(=O)c2cccc3nsnc23)CC1	0.2	/	/	/	1
CC1=C(CC[C@@H](C)CO)OC2CC3C4CCC5CC(O)CCC5(C)C4CC(=O)C3(C)C12 (stereo partly specified)	4.1	/	5%	/	-4
CC(c1nc2ccccc2c(=O)[nH]1)N1CCOCC1 (stereo unspecified)	9.1	-1	6%	/	-1
Cc1sc2nc(CC(=O)NN)[nH]c(=O)c2c1C	-2.3	/	-16%	/	-5
CC(C)CC(OC(=O)c1nsc(Cl)c1Cl)C(=O)NCc1cccs1 (stereo unspecified)	-0.4	1	-8%	2	0
Cc1ccc(NC(=O)CSc2nnc([C@@H](N)Cc3c[nH]c4ccccc34)o2)c(C)c1	1.6	0	-5%	-44	-1
CC1=CSC2=NC(=O)/C(=C\c3cccn3-c3ccc([N+](=O)[O-])cc3)C(=N)N12	2.8	-13	0%	-11	3
Cc1cc(C)c(NC(=O)/C(=C/c2ccccc2)c2ccccc2)c(C)c1	17	-10	17%	-24	42
S=c1[nH]nc(-c2ccccn2)n1/N=C/c1ccc(Cl)c(Cl)c1	11	/	1%	/	-11
COc1ccc(C)cc1NC(=O)CSc1ccc(-c2sc(C)nc2C)nn1	-4.7	/	/	/	3
O=C(O)C1C2CC2CN1C(=O)c1ccc(Cl)cc1 (stereo unspecified)	-3.2	4	0%	/	-5
O=C(Cn1nnc(-c2ccccc2)n1)N1CCN(S(=O)(=O)c2ccc(Cl)cc2)CC1	/	3	5%	-31	-1
CC(C)CN(C(=O)COC(=O)C1=COCCO1)c1c(N)n(Cc2ccccc2)c(=O)[nH]c1=O	-0.3	/	/	/	-8
O=C(NCc1ccncc1)c1cc2ccccc2nc1Cl	2.0	4	3%	/	0
Cc1ccc(S(=O)(=O)N(CC(=O)N2CCC(C(N)=O)CC2)c2cccc(C(F)(F)F)c2)cc1	-0.7	2	-17%	-13	-16
Cc1ccc(S(=O)(=O)c2cc3c(=O)n4ccccc4nc3n(C3CCCC3)c2=N)cc1	-26	/	/	/	10
c1ccc2c(c1)Nc1ccccc1S2	-1.4	-5	68%	11	2
Cc1cccc(Nc2nnc(SCC(=O)N(C)C3CCS(=O)(=O)C3)s2)c1C (stereo unspecified)	-1.7	6	1%	-7	4
CC(C)c1ccc(OCc2ccc(C(=O)NN3CCN(C)CC3)o2)cc1	-3.2	-21	-6%	/	-6
CC(=O)NCCn1c(SCc2ccc(C)cc2C)nc2ccccc2c1=O	5.7	1	-13%	-14	6
CCOC(=O)C1CCCN(S(=O)(=O)CCNC(=O)c2ccc3c(c2)OCO3)C1 (stereo unspecified)	-2.2	/	/	/	-1
CC(C)(C)OC(=O)N[C@@H](COCc1ccccc1)C(=O)N[C@@H](CO)[C@H](O)[C@@H]1C[C@@H]1C(=O)N1CCCC1	0.3	/	/	/	-9
C[C@@H]1C=C(C(=O)NC2CC2)O[C@H](OCc2ccc(CO)cc2)C1	-0.6	/	-15%	/	5
O=C(c1cc(F)ccc1F)C1CCCN(C(=O)c2ccc(F)cc2Cl)C1 (stereo unspecified)	3.4	7	12%	/	2
Cc1nn(Cc2ccc(Cl)c(Cl)c2)c(C)c1NC(=O)c1cn(-c2ccccc2)nc1-c1ccccc1	-0.4	-14	30%	-6	15
COc1ccc(C(=O)NCC(c2cccnc2)N2CCN(c3ccc(F)cc3)CC2)cc1OC (stereo unspecified)	/	-1	2%	-21	-2	Arbovirus anti repeat=-3
O=S(=O)(c1ccc(S(=O)(=O)N(Cc2ccccc2)Cc2ccco2)cc1)N1CCCC1	-1.4	/	-5%	43	-1
COC(=O)C1=C(O)/C(=C\c2ccc(OCC(=O)Nc3ccc(OC)cc3)cc2)N=C1C	-12	/	/	/	6
Cc1ccc(C(=O)NC(C)c2ccc(C)c(C)c2)s1 (stereo unspecified)	-0.3	/	/	/	1
COc1ccc(C2NN=C(c3c[nH]c4ccccc34)C2O)cc1 (stereo unspecified)	-3.3	/	/	/	4
CC1CCN(c2ccc(NC(=O)c3ccc(Br)o3)cc2)CC1	-5.0	/	/	/	-6
CC(C(=O)NCCc1nc2ccccc2[nH]1)n1cc([N+](=O)[O-])cn1 (stereo unspecified)	-4.2	-3	-2%	/	4
Cc1cc(NC(=O)NC(=O)c2ccccc2F)no1	3.4	/	/	/	?
CCOC(=O)c1c(NC(=O)c2c(C(=O)O)cccc2[N+](=O)[O-])sc(C)c1C	-1.7	2	-10%	/	-1
COc1cc(-c2noc(C)c2C(=O)NCCO)cc(OC)c1OC	-1.4	/	/	/	-17
COC(=O)c1cccc(Nc2ncnc3sccc23)c1	0.3	0	1%	/	-3
CCOCCn1c(COc2ccc(C)cc2)nc2ccccc21	7.9	-7	16%	-3	3

(next part)
SMILES	RecA intein inh	Arbovirus anti	Mtb H37Rv	YopH PTP inh	Mtb betalactam	others
O=C(N/N=C/c1cc(Br)cc(Cl)c1O)c1ccc2c(c1)OCO2	6.6	/	/	/	6
COc1ccc(/C=C/C(=O)Nc2ccc(-c3nnc4n3CCCCC4)cc2)c(OC)c1	1.3	12	13%	-14	0
CCC(c1nnc(SCC(=O)Nc2ccc(C(N)=O)cc2)n1Cc1ccccc1)N(C)C (stereo unspecified)	-1.6	/	/	/	4
O=C(CN1CCN(CCN2C(=O)c3cccc4cccc(c34)C2=O)CC1)c1ccc(Cl)cc1	/	0	21%	-19	/
COc1oc(-c2ccccc2)nc1C(F)(F)F	5.3	6	0%	-20	-9
CC(C)C(NC(=O)c1ccco1)C(=O)OCC(=O)c1ccccc1 (stereo unspecified)	3.3	/	/	/	4
COc1cc(CC(=O)NNC(=O)c2cc(C)oc2C)cc(OC)c1OC	-0.9	-4	-7%	-23	1
COc1cc(/C=C2/C(=O)N(c3ccccc3)N=C2C)ccc1OS(=O)(=O)c1ccccc1	70*	-3	3%	-1	5
Cc1ccc(-c2csc(Cc3nc(-c4ccc5c(c4)CCC(=O)N5)cs3)n2)cc1	1.4	/	/	/	5
C/C(=N\NC(=O)c1ccc(F)cc1)c1ccc(NC(=O)Cc2ccccc2)cc1	-1.7	/	/	/	-16
O=C(NCCOc1cccc2cccnc12)c1cccs1	0.6	9	5%	/	2
COC(=O)CCC(=O)OC1(C)C(=O)C=C2C=C(C3CC3)N(C3CCCCC3)C=C2C1=O (stereo unspecified)	17	/	-6%	/	6
CCC(C)N1CCCC1C(=O)Nc1c(C)cc(C)cc1C (stereo unspecified)	0.5	0	-13%	-16	-11
COC(=O)C1=C(SC)N(c2ccc(OC)cc2)C(c2ccccc2)CC1=O (stereo unspecified)	-3.3	-4	-4%	-14	-5
COc1ccc(S(=O)(=O)NCC2CCCN(Cc3cccc(C(C)=O)c3)C2)cc1 (stereo unspecified)	3.5	/	/	/	-8
COc1ccccc1Oc1cc(F)nc(N)n1	0.4	11	-1%	0	2
O=C(/C=C/c1ccccc1Br)c1ccc2c(c1)OCO2	8.7	/	/	/	17
COc1ccccc1OCCCc1c(C)n[nH]c1C	1.8	-3	1%	-36	16
Cc1cccc(-c2nc(CN3CCCC(C(=O)NC4CCCC4)C3)c(C)o2)c1 (stereo unspecified)	1.4	9	-3%	-16	7
CC1(C)CC(=O)C=C(Nc2ccc(O)c(C(=O)O)c2)C1	-12	/	/	/	-3

The closing 4 compounds of the part above are carried over, then new ones follow.
SMILES	RecA intein inh	Arbovirus anti	Mtb H37Rv	YopH PTP inh	Mtb betalactam	others
O=C(/C=C/c1ccccc1Br)c1ccc2c(c1)OCO2	8.7	/	/	/	17
COc1ccccc1OCCCc1c(C)n[nH]c1C	1.8	-3	1%	-36	16
Cc1cccc(-c2nc(CN3CCCC(C(=O)NC4CCCC4)C3)c(C)o2)c1 (stereo unspecified)	1.4	9	-3%	-16	7
CC1(C)CC(=O)C=C(Nc2ccc(O)c(C(=O)O)c2)C1	-12	/	/	/	-3
O=C(NCc1ccc(Cl)cc1)c1cc(=O)nc2sc(-c3ccccc3)nn12	1.2	-9	-2%	-15	-4
CCN1CCN(Cc2nc3c(c(=O)n(C)c(=O)n3C)n2C(C)C(C)=O)CC1 (stereo unspecified)	-0.8	1	1%	-2	-11	Arbovirus anti repeat=5
CCCc1cc(=O)oc2c(C)c(OCC(=O)Nc3cccnc3)ccc12	-0.6	/	/	/	3
CCCC(C)NC(=O)c1ccc(-c2ccccc2)cc1 (stereo unspecified)	-1.6	1	8%	/	0
CCN1c2ccccc2-c2nc3ccccc3n2C1c1cccs1 (stereo unspecified)	-28	1	9%	-16	?
COc1ccccc1Nc1nc(N)nc(CN2CCN(Cc3ccc4c(c3)OCO4)CC2)n1	1.3	/	6%	/	45
COc1cc(O)c(CCC(=O)c2cc(OC)c(OC)c(OC)c2)c(OC)c1	-1.3	2	0%	-23	1
O=CN1CCN(C(=S)Nc2ccc(OC(F)F)cc2)CC1	0.1	/	-5%	/	-12
CC(C(=O)OCC(=O)c1ccc([N+](=O)[O-])cc1)N1C(=O)C2C3CCC(C3)C2C1=O (stereo unspecified)	-3.2	/	-2%	/	0
O=C(Cc1ccc(Br)cc1)NC1CCN(Cc2ccccc2)CC1	-0.3	/	/	/	6

Among those listed so far, 6 have a furan ring, fused or not:
SMILES	RecA intein inh	Arbovirus anti	Mtb H37Rv	YopH PTP inh	Mtb betalactam	others
CC(C)(C)c1cc(NC(=O)c2ccco2)n(-c2ccccc2)n1	13	0	7%	/	1
CC(C)c1ccc(OCc2ccc(C(=O)NN3CCN(C)CC3)o2)cc1	-3.2	-21	-6%	/	-6
O=S(=O)(c1ccc(S(=O)(=O)N(Cc2ccccc2)Cc2ccco2)cc1)N1CCCC1	-1.4	/	-5%	43	-1
CC1CCN(c2ccc(NC(=O)c3ccc(Br)o3)cc2)CC1	-5.0	/	/	/	-6
CC(C)C(NC(=O)c1ccco1)C(=O)OCC(=O)c1ccccc1 (stereo unspecified)	3.3	/	/	/	4
COc1cc(CC(=O)NNC(=O)c2cc(C)oc2C)cc(OC)c1OC	-0.9	-4	-7%	-23	1

Screening results (PubChem)
